Bioassay records as filed in PubChem BioAssay.
Resorufin autofl – compound fluoresces in the resorufin spectral region; Compound fluorescence, resorufin region 547/598 nm, buffer; hits give high values; AID 588; 0.04% of 59,000 active; max dye-equivalent concentration, M; active = above 10 nM dye equivalent; inconclusive = 1 to 10 nM; inactive = 1 nM or less; a few of its hits are not listed in these tables; also: highest value over a series up to 38 µM
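Compounds in 100 mM Tris, pH 8.0, incubated 15 min at room temperature, then fluorescence read at 547 nm excitation/598 nm emission. Signal converted to dye-equivalent concentration via an on-plate six-point resorufin standard curve, per compound concentration.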
TSHR agonist – agonists of human thyroid stimulating hormone receptor; P16473; 0.48% of 73,000 active; AID 926; Potency, µM (doses to about 57.1 µM), without a hit: top-dose activation, usual class: activators; HEK293-CNG-TSHR cells (CNG channel as cAMP sensor), membrane potential dye, cAMP; active = well fitted activation curve of enough size with the parental cells flat; inconclusive = any curve in the parental cells; inactive = parental cells flat and receptor cells flat or falling; also: potency is read from the fitted curve at half-maximal effect; % of control where 0% means no effect; weak receptor curves with flat parental cells got no call and are not listed
Target sequence (P16473 whole entry, looked up): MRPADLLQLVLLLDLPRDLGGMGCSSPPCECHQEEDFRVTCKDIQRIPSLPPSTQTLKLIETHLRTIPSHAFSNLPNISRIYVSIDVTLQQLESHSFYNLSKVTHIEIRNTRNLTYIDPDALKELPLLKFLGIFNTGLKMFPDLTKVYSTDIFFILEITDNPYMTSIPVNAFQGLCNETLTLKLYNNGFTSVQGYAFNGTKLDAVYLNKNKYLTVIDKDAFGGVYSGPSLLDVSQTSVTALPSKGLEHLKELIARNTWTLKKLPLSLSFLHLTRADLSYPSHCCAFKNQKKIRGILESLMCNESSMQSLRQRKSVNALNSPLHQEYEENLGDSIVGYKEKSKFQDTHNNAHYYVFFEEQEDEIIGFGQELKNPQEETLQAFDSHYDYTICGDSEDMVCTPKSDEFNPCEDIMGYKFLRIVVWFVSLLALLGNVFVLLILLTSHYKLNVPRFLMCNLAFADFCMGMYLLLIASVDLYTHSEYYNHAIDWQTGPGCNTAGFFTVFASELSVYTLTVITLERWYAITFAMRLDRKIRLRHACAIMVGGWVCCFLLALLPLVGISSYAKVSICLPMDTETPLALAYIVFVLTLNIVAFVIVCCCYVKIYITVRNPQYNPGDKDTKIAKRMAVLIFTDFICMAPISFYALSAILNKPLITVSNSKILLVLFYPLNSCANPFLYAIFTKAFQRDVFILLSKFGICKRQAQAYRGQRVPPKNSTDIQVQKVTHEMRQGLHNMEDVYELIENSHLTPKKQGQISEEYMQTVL
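cAMP rise detected as CNG-channel membrane depolarization by fluorescent dye (emission 590 nm), 30 min after compound, following 60 min dye loading containing 100 uM RO 20-1724 at room temperature. Cells: TSHR/CNG HEK 293, with parental CNG HEK 293 as control.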
A647 fluor – A647 region autofluorescence; Compound fluorescence, A647 channel (570/671 nm), Tris buffer; max dye-equivalent concentration, M; 59,000 tested, under 10 active; active means above 1 µM dye equivalent; inconclusive means 0.1 to 1 µM; inactive means 0.1 µM or less;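 also: values scaled relative to a standard on each plate; highest value over a series up to 38 µM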
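Compounds pinned into 100 mM Tris pH 8.0, 15 min at room temperature, then read with 570 nm excitation/671 nm emission filters. Fluorescence normalized to an on-plate six-point Alexa 647 standard curve, giving dye-equivalent concentration per compound concentration.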
A488 autofl – compound autofluorescence in A488 spectral region | compound autofluorescence, A488 spectral region, dye equivalency; hits give high values | max dye equivalency, M | 0.1% of 59,000 active; active = above 10 nM dye equivalent; inconclusive = 1 to 10 nM; inactive = 1 nM or less; about half of its hits are not listed in these tables;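 also: highest value over a series up to 38 µM; compound alone in buffer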
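Compound autofluorescence was read in 100 mM Tris pH 8.0 after 15 min at room temperature, ex 480 nm/em 540 nm. Intensities were converted to A488 dye-equivalent concentration using an on-plate six-point A488 standard curve.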
AID923 – qHTS Assay for Allosteric/Competitive Inhibitors of Caspase-1: Spectroscopic Profiling in AFC Spectral Region; compound fluorescence, AFC spectral region (405/520 nm); almost no hit is shown here; Potency, µM (titrated, usually from 57.5 µM), inactives show top-dose fluorescence increase, actives largely listed as activators; 1.1% of 75,000 active; AID 923, 2007; active = well fitted activation curve with a large enough effect; inconclusive = small, poorly fitted or top-dose-only effect;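 also: potency is read from the fitted curve at half-maximal effect; 0% is about no effect; scaled to a free AFC standard on each plate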
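Compound autofluorescence profiled at 405 nm ex/520 nm em during kinetic caspase 1 run (50 nM enzyme, 5 uM Ac-WEHD-AFC, HEPES pH 7.5, 10 mM DTT). Titration up to 57 uM; baseline from regression intercept, normalized to AFC standard curve.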
* hit, by the source's call; i = inactive; ? = inconclusive; nt = no result given; & = joins results of further samples; [ ] = dose if it differs, or a comment. The list is partial. The share of hits here may be higher or lower than overall.

Each structure is followed by: Resorufin autofl | TSHR agonist | A647 fluor | A488 autofl | AID923
- OC1(c2ccc(F)cc2)CC2CCC(C1)N2Cc1nnnn1C1CCCCC1 (centres undefined)
 : i | 6.3% | 1e-09 | i | -0.3%
- CCN(CC)CCCN=C(C)c1c(O)n(C2CCCCC2)c(=O)[nH]c1=O
 : i | 7.2%[11.4 µM] | 1.84e-08 | i | -0.3%
- CC1CC2(O)c3no[n+]([O-])c3CCC2N1O (centres undefined)
 : i | -4.7% | 1.9e-09 | i | 2.1%
- N[C@@H](CSC1c2ccccc2-c2ccccc21)C(=O)O
 : i | -7.8%[11.4 µM] | 1e-09 | i | 0.6%[11.5 µM]
- C(#CCN1CCOCC1)COCC#Cc1ccccc1
 : i | 0.3% | 4.25e-08 | i | -0.1%
- O=C(c1cc2c(s1)CCCCCC2)N1CCC2(CC1)OCCO2
 : i | 5.5% | 1e-09 | i | 0.7%
- O=C(O)Cn1cc(C(=O)c2ccccc2)c2ccccc21
 : i | 8.3% | 2.44e-08 | i | -1.1%
- c1ccc(N2CC3(CCNCC3)C2)nc1
 : i | -3.0% | 1.6e-09 | i | -0.9%
- CCCNc1oc(-c2cccc3ccccc23)nc1C#N
 : i | -0.9% | 1e-09 | i | 10µM*
- O=[As](O)(O)c1ccc(Cc2ccc([As](=O)(O)O)cc2)cc1
 : i | 2.2%[11.4 µM] | 1.28e-08 | i | -0.7%[11.5 µM]
- Cc1cc(N)n(C2CCN(C)CC2)n1
 : i | 2.2% | 1e-09 | i | 1.9%
- COc1cc2c(cc1O)C[C@@H]1c3c(cc(O)c(OC)c3-2)CCN1C
 : i | 3.1%[11.4 µM] | 3.29e-08 | i | 0.9%[11.5 µM]
- CCOC(=O)N(C)c1ccc(C(O)(C(=O)OCC)C(F)(F)F)cc1 (centres undefined)
 : i | ? | 1e-09 | i | 1.1%
- N[C@H](Cc1ccc2oc3cc(=O)c4ccccc4c-3nc2c1)C(=O)O
 : ? | -0.8%[11.4 µM] | 1.08e-08 | 3.89e-08M* | 6.4%[11.5 µM]
- CCOc1c(P(=S)(N(C)C)N(C)C)c(C)nn1-c1ccccc1
 : i | 17.8% | 1.13e-08 | i | -2.6%
- CCn1c(C(=O)N2CCC(C(=O)N3CCC4(CC3)OCCO4)CC2)cc2sccc21
 : i | -1.3% | 6.6e-09 | i | -0.8%
- FC(F)(F)c1ccc(Cl)cc1
 : nt | 6.4% | nt | nt | 3.5%
- O=c1[nH]c2ccccc2n1CCCN1CCC(n2c(=O)[nH]c3cc(Cl)ccc32)CC1
 : i | ? | 4.6e-09&6.5e-09&1e-09&5.1e-09 | i | -2.1%
- COCCOC(=O)C1=C(N)Oc2c(c(=O)oc3ccccc23)[C@@]12C(=O)Nc1ccccc12
 : i | nt | 8.96e-08 | i | nt
- C=Cn1ccnc1P(=S)(c1ccn(C)c1)c1nccn1C=C
 : i | 5.6% | 1.64e-08 | i | -0.1%
- O=C(NCC(c1cccnc1)N1CCOCC1)Oc1ccccc1 (centres undefined)
 : i | 3.4% | 1.05e-08 | i | -1.6%
- O=C1C=Cc2ccccc2C1=O
 : nt | 13.8% | nt | nt | 0.4%
- Cc1cc(N2C(=O)CC(N3CCC(n4c(=O)[nH]c5ccccc54)CC3)C2=O)no1 (centres undefined)
 : i | -11.9% | 3.1e-09 | i | 3.6%
- COc1ccc(N=C(C)c2c(O)n(C3CCCCC3)c(=O)[nH]c2=O)c(OC)c1
 : i | 16.4%[11.4 µM] | 2.4e-08 | i | -1.0%
- CC(=O)OC1(c2ccc(C)cc2)CN2CCC1c1ccccc12 (centres undefined)
 : i | nt | 1.39e-08 | i | nt
- CC(=O)c1ccccc1NC(=O)C1C2CCC(O2)C1C(=O)O (centres undefined)
 : i | -2.4% | 2.62e-08 | i | -0.6%
- CN(C)c1ccc(P(=S)(N(C)C)N(C)C)cc1
 : i | 2.5%[11.4 µM] | 2.7e-09 | i | -0.9%
- Brc1ccccc1
 : nt | -3.2% | nt | nt | 0.6%
- O=C(O)c1cccc([As]=[As]c2cccc(C(=O)O)c2)c1 (centres undefined)
 : i | 0.7%[11.4 µM] | 1e-09 | i | -2.8%[11.5 µM]
- OC1(CN2CCOCC2)C2CC3CC(C2)CC1C3 (centres undefined)
 : i | -11.6% | 2.7e-09 | i | -1.2%
- CC(C)(C)c1cc(C=C(C#N)C#N)cc(C(C)(C)C)c1O
 : i | ? | 2e-09 | i | -1.7%
- C=CCBr
 : nt | ? | nt | nt | 1.2%
- CCCN1CC[C@@H]2c3cc(O)ccc3CC[C@H]21
 : i | ? | 1.56e-08 | i | -1.8%
- Nc1nc(N)c(N=Nc2ccc([As](=O)(O)O)c(O)c2)c(N)n1
 : i | 4.0%[11.4 µM] | 4.54e-08 | i | 0.7%[11.5 µM]
- CCC/C=C(\CCC)C(NP(=O)(c1ccccc1)c1ccccc1)c1ccccc1 (centres undefined)
 : nt | ? | nt | nt | -1.2%
- CCOC(=O)c1c(C)n(CCOC)c2ccc(O)cc12
 : i | ? | 3.3e-09 | i | -0.9%
- O=C1C2CCCN2C(c2ccc(Cl)c(Cl)c2)N1c1ccccn1 (centres undefined)
 : i | 9.2% | 1e-09 | i | 3.3%
- Cc1ccc(CS(=O)(=O)CCC(=O)N2CCC3(CC2)OCCO3)cc1
 : i | 6.0% | 2.95e-08 | i | 0.3%
- C[C@H]1CCCC(=O)CCCCCc2cc(O)cc(O)c2C(=O)O1
 : i | -10.3% | 4.6e-09&6.7e-09 | i | -2.4%
- CCOC(=O)[C@@H]1[C@@H]2c3ccccc3-c3ccccc3[C@H]2C[C@H]1O
 : i | ? | 1e-09 | i | -0.1%[11.5 µM]
- COc1cc(C=C(C#N)C#N)cc(O)c1O
 : i | -6.7% | 3.75e-08 | i | -3.5%
- COc1cc(CCN)c(OC)c(OC)c1
 : i | -5.6%[11.4 µM] | 3.83e-08 | i | -1.8%[11.5 µM]
- C[C@](N)(CCP(=O)(O)O)C(=O)O
 : nt | 10.7% | nt | nt | -1.5%
- Cc1cc(C)n2nc(C)[n+](C)c2n1
 : i | -4.0%[11.4 µM] | 1e-09 | i | -0.5%
- O=C(OCC#CCSc1nnc(-c2ccccc2)o1)c1ccco1
 : i | ? | 1.55e-08 | i | 0.3%
- C=CCn1c(O)c(C(C)=Nc2ccc(C(=O)OCC)cc2)c(=O)[nH]c1=O
 : i | 7.8% | 2.95e-08 | i | 0.6%
- CC1CC(=O)O1 (centres undefined)
 : nt | -7.6% | nt | nt | 3.6%
- CCN(CC)CCCN=Cc1c(O)n(CCc2ccc(F)cc2)c(=O)[nH]c1=O
 : i | -0.3% | 1e-09 | i | 0.9%
- Nc1c(Br)cc(Br)cc1CNC1CCC(O)CC1 (centres undefined)
 : i | ? | 2e-09 | i | 0.9%
- Cc1ccc(N2C(=O)NC(=O)C3(Cc4ccccc4N4CCN(c5ccccc5)CC43)C2=O)cc1 (centres undefined)
 : i | 9.6% | 1e-09 | i | 9.0%
- O=c1[nH]c(=O)n(CCC2=CCCCC2)c(O)c1C=NCCCn1ccnc1
 : i | 21.0% | 1.7e-09 | i | 1.2%
- OC1(c2ccc(Cl)cc2)CCN(Cc2c[nH]c3ccccc23)CC1
 : i | ? | 5.4e-09 | i | -1.4%
- CN1[C@H](CC(=O)c2ccccc2)CCC[C@H]1C[C@H](O)c1ccccc1
 : nt | 17.1% | nt | nt | 1.1%
- Cc1ccc2ccccc2c1
 : nt | ? | nt | nt | 2.7%
- O=[N+]([O-])c1ccc(Cl)c(Cl)c1
 : nt | 0.6% | nt | nt | 1.8%
- CCCC(C)C(=O)NC1CCSC1=O (centres undefined)
 : nt | 12.4%[11.4 µM] | nt | nt | 0.8%
- O[C@@H]1[C@H](O)[C@H]2[C@@H](O)CCN2C[C@@H]1O
 : nt | 4.2% | nt | nt | -3.2%
- CC(=NCCCO)c1c(O)n(Cc2ccccc2)c(=O)[nH]c1=O
 : i | 0.9% | 8.9e-09 | i | -1.4%
- CCOCCCNC(=O)CN1C2CCC1CC(O)(c1ccc(OC)cc1)C2 (centres undefined)
 : i | 1.1% | 1.55e-08 | i | 1.1%
- COc1ccccc1-n1c(-c2ccoc2)nc2ccccc2c1=O
 : i | 13.2% | 1.58e-08 | i | -3.4%

Some of the entries above, reformatted:
molecule | Resorufin autofl | TSHR agonist | A647 fluor | A488 autofl | AID923
Cc1ccc(N2C(=O)NC(=O)C3(Cc4ccccc4N4CCN(c5ccccc5)CC43)C2=O)cc1 (centres undefined) | i | 9.6% | 1e-09 | i | 9.0%
O=c1[nH]c(=O)n(CCC2=CCCCC2)c(O)c1C=NCCCn1ccnc1 | i | 21.0% | 1.7e-09 | i | 1.2%
OC1(c2ccc(Cl)cc2)CCN(Cc2c[nH]c3ccccc23)CC1 | i | ? | 5.4e-09 | i | -1.4%
CN1[C@H](CC(=O)c2ccccc2)CCC[C@H]1C[C@H](O)c1ccccc1 | nt | 17.1% | nt | nt | 1.1%
Cc1ccc2ccccc2c1 | nt | ? | nt | nt | 2.7%
O=[N+]([O-])c1ccc(Cl)c(Cl)c1 | nt | 0.6% | nt | nt | 1.8%

Next section
Each structure is followed by: Resorufin autofl | TSHR agonist | A647 fluor | A488 autofl | AID923
- CCCN1C[C@H](C)N([C@H](c2ccc(C(=O)N(CC)CC)cc2)c2cccc(OC)c2)C[C@H]1C
 : nt | 5.6% | nt | nt | -2.3%
- COc1cc([C@@H](O)CN)ccc1O
 : i | 5.2% | 3.52e-08 | i | -2.1%
- NCCc1c[nH]c2ccc(C(N)=O)cc12
 : i | ? | 3e-09 | i | -1.4%&-2.3%
- c1ccc2c(c1)Sc1ccccc1N2C[C@H]1CN2CCC1CC2
 : i | 2.4%[11.4 µM] | 1e-09 | i | 1.8%[11.5 µM]
- CC(C#N)CCC#N (centres undefined)
 : nt | ? | nt | nt | -2.1%
- CC1=C[C@@H]2c3cccc4[nH]cc(c34)C[C@H]2N(C)C1
 : i | -7.1% | 3.51e-08 | ? | nt
- CC(C)(C)C(O)C(Oc1ccc(Cl)cc1)n1cncn1 (centres undefined)
 : i | 0.0% | 1e-09 | i | 0.7%
- CCOC(=O)CNC(=O)CSP(=S)(OCC)OCC
 : nt | ? | nt | nt | 1.0%
- CCCCc1ccc2[nH]cc(CCN)c2c1
 : i | -10.1% | 1e-09 | i | -1.9%
- CC1Cc2c(cnc3c2CN(C)CC3)CO1 (centres undefined)
 : nt | 7.3%[11.4 µM] | nt | nt | -0.1%[11.5 µM]
- CCCCCCC(C)(C)c1ccc([C@@H]2C[C@H](O)CC[C@H]2CCCO)c(O)c1
 : i | ? | 3.32e-08 | i | nt
- C[N+]12CCC(CC1)C(C#N)(N1CCOCC1)C2 (centres undefined)
 : i | -0.5% | 4.11e-08 | i | 1.7%
- COP(=S)(OC)SCn1nnc2ccccc2c1=O
 : nt | ? | nt | nt | -0.9%
- CC(Cl)CCl (centres undefined)
 : nt | 3.8% | nt | nt | 3.3%
- CCCCn1c(=O)c(C(=O)Nc2ccccc2S(N)(=O)=O)c(O)c2ccccc21
 : i | nt | 1e-09 | i | 0.4%
- COc1ccc(-c2nc(CS(=O)CC(=O)N3CCC4(CC3)OCCO4)c(C)o2)cc1 (centres undefined)
 : i | nt | 2.57e-08 | i | -0.4%
- C=C(C)[C@H]1[C@H]2OC(=O)[C@@H]1[C@]1(O)C[C@H]3O[C@]34C(=O)O[C@H]2[C@]14C
 : i | -2.3% | 1.9e-08 | i | nt
- CC(N)C(=O)c1ccco1 (centres undefined)
 : i | 3.5%[11.4 µM] | 2.7e-09 | i | 4.9%
